PV pol inh = poliovirus RNA polymerase inhibition. P03300. poliovirus polymerase elongation, fluorescence polarization; stronger effect = lower value. % elongation, % (compound at 16.7 µg/mL). actives 0.66% (n = 150,000); in the data active = % elongation below about 90%; note: some results filed as inactive read as strong as hits
Target sequence (P03300 1749-2209 limits assumed): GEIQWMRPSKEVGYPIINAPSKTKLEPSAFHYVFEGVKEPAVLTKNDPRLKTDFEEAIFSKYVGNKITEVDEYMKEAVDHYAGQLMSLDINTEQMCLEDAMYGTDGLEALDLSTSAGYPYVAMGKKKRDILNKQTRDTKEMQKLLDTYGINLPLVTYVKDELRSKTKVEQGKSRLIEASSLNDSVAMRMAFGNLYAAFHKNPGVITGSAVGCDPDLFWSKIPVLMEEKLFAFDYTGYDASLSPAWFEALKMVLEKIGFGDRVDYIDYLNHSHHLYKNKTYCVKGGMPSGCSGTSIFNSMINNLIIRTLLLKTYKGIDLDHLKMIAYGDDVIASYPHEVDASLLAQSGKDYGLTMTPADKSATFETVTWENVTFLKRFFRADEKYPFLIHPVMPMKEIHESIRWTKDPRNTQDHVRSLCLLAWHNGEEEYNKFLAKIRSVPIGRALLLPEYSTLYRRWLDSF
PV pol inh intensity = also measured in PV pol inh; calls as there; % elongation; measured here: total intensity read-out; formula for this scale not given here;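 total fluorescence in place of polarization; lower means less elongation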
The depositor's hits bear a star. These rows are one share of the data; rates above refer to the full screens.

SMILES	PV pol inh	PV pol inh intensity
CC(C)CC(=O)Nc1nnc(S(=O)(=O)N2CCc3ccccc32)s1	111	116
CCc1ccccc1N(C)C(=O)c1cc2c(Cl)nc3ccc(C)cc3c2s1	106	107
Cc1nn(-c2ccccc2)c2c1N(CCCC(=O)NCc1ccc(Cl)cc1)C(=O)CS2	108	113
Cc1ccc(-n2nc(C)c3c(C(=O)NCc4ccc(F)cc4)cc(C)nc32)cc1	114	118
COCCCNC(=O)c1cc(-c2ccc(OC)cc2)nc2n[nH]c(-c3ccc(Cl)cc3)c12	105	107
CCn1c(C)c(C)c2cc(C(=O)NCc3ccc(N(C)C)cc3)ccc21	105	97
O=C(Nc1ccccc1OCc1cc(=O)n2ccccc2n1)Nc1ccccc1C(F)(F)F	110	108
COc1cc(C(=O)Nc2ccc(OCc3cc(=O)n4ccc(C)cc4n3)cc2)cc(OC)c1OC	115	100
CCOc1ccc(CCNC(=O)c2cnc3sc(N4CCCC4)nn3c2=O)cc1	5.0*	32*
Cc1cccc(N2CCN(C(=O)C3CCN(S(=O)(=O)c4c(C)noc4/C=C/c4ccccc4F)CC3)CC2C)c1 (stereo unspecified)	111	114
Cc1cccc(-n2ncc(C(=O)NCc3ccco3)c2C2CCN(C(=O)OC(C)(C)C)CC2)c1	105	105
CCCN1C(=O)C(Cc2nc3ccccc3c(=O)n2-c2cccc(C)c2)c2ccccc21 (stereo unspecified)	111	113
CCOc1ccccc1NC(=O)Cn1c(=O)oc2ccccc21	105	102
Cc1ccc(C(C)C)c(OCC(=O)Nc2cc(-c3nc4ccccc4[nH]3)ccc2C)c1	105	102
COc1ccc(OC)c(C(=O)CC2(O)C(=O)N(Cc3ccccc3C)c3ccccc32)c1 (stereo unspecified)	107	105
Cc1cc(C)n(-c2nc3cc(Cl)ccc3nc2N2CCN(c3ccccc3F)CC2)n1	106	107
Cc1ccccc1CNC(=O)CN(c1cccc(C)c1C)S(C)(=O)=O	99	84
CC[C@H](C)NC(=O)CCCc1nnc2n(CCC(C)C)c(=O)c3sccc3n12	111	114
CC(=O)Nc1ccc(NS(=O)(=O)c2c(C(=O)N3CCCCCC3)c(C)n(C)c2C)cc1	104	101
CCn1ccc2cc(S(=O)(=O)N3CCC(C(=O)NCCOC)CC3)ccc21	107	115
COc1ccc2c(CNC3CCC(C)CC3)c(C(=O)O)n(Cc3ccccc3)c2c1 (stereo unspecified)	108	110
Cc1nn2c(C)c(C(=O)NCC(C)c3ccccc3)cnc2c1-c1ccccc1 (stereo unspecified)	113	121
CCOc1ccc(NC(=O)c2cc(S(=O)(=O)N3CCc4ccccc43)ccc2F)cc1	103	107
COc1ccc(CNC(=O)CCc2c(C)nn(-c3ccc(N4CCCCC4)nn3)c2C)c(OC)c1	102	113
Cc1ccc(-n2nc(C(=O)N3CCCCC3C)c(=O)n(C)c2=O)cc1 (stereo unspecified)	106	112
CCc1cccc(NC(=O)C2CCN(C(=O)c3cnn(-c4ccccc4)c3-n3cccc3)CC2)c1	110	110
O=C(NCCC1=CCCCC1)c1ccc2c(c1)N(Cc1ccccc1F)C(=O)c1ccccc1S2=O (stereo unspecified)	109	105
O=C(Nc1nnc2n1CCS2)c1cc(C(F)(F)F)cc(C(F)(F)F)c1	113	121
Cc1c(NC(=O)c2ccc(OC(C)C)cc2)cccc1-c1nc2ncccc2o1	102	106
CCOc1ccc(CCNC(=O)CCc2cn(Cc3ccccc3F)c3ccccc23)cc1OCC	109	114
CC1CCN(S(=O)(=O)c2ccc3c(ccn3CC(=O)NCc3ccc(N(C)C)cc3)c2)CC1	113	112
COc1ccc(-c2nc3ccc(C(=O)NCc4ccc(C)cc4)cc3nc2-c2ccc(OC)cc2)cc1	110	112
COc1cccc(NC(=O)Cn2c(=O)n(Cc3nc(-c4ccccc4)no3)c(=O)c3ccccc32)c1	112	114
O=c1c2sc3ccccc3c2n(Cc2ccccc2Cl)c(=O)n1Cc1ccccc1	104	105
CCN(CC)C(=O)Cn1c(SCC(=O)Nc2ccc(C)c(C)c2)nc2ccccc21	108	98
O=S(=O)(c1ccc2nc(Nc3ccc(Br)cc3F)ccc2c1)N1CCCCC1	101	106
CCOc1ccc(S(=O)(=O)N2Cc3ccccc3CC2C(=O)Nc2ccc(NC(C)=O)cc2)cc1 (stereo unspecified)	104	104
COc1cc(OC)c(NC(=O)c2c(C)nn(-c3ccc(C)cc3)c2-n2cccc2)cc1Cl	105	108
Cc1cc(C)cc(Oc2c(C(F)(F)F)oc3c(CN4CCCC(C)C4)c(O)ccc3c2=O)c1 (stereo unspecified)	102	110
COc1ccc(NC(=O)c2c(C)oc3ccc(O)c(CN4CCCC(C)C4)c23)cc1 (stereo unspecified)	109	114
CCc1nnc(SCc2nc(-c3ccccc3F)oc2C)c2cc3sccc3n12	109	111
CCOC(=O)c1c(C)oc2nc(C)nc(NCCc3ccc(OCC)cc3)c12	106	110
Cc1ccc2c(c1)nc(SCC(O)c1ccc(Br)cc1)n2C (stereo unspecified)	106	110
O=C(CSc1ncc(-c2ccc(Cl)cc2)[nH]1)Nc1ccccc1F	105	105
O=C(Cn1ncc2c(Cl)cccc21)NCc1cccc(F)c1	107	100
CC(=O)c1cccc(-n2c(=O)c3c4c(sc3n(Cc3cccc(C)c3)c2=O)CN(C(C)=O)CC4)c1	101	105
CN(C(=O)c1cnc(N2CCOCC2)c2ccccc12)c1ccccc1F	109	104
COc1ccc(NC(=O)C(C)n2nc(-c3ccc(C)c(C)c3)ccc2=O)cc1OC (stereo unspecified)	112	108
O=C(CSc1ncc2c(n1)-c1ccccc1N(Cc1ccc(Cl)cc1)S2(=O)=O)c1ccc(Cl)cc1	98	102
CCC(C(=O)Nc1cc(F)ccc1F)n1nc(C)c2c(C)n(-c3ccc(C)cc3)nc2c1=O (stereo unspecified)	106	112
Cc1ccc(-n2c3nc(=O)n(C)c(=O)c-3cc3c(Cl)cccc32)c(C)c1	109	110
Cn1cc(C(=O)N2CCN(c3ccccc3)CC2)c(=O)c2cc(S(=O)(=O)N3CCCC3)ccc21	98	96
CCOC(=O)Cc1ccc(NC(=O)N2CCc3c(sc4c3CCCC4)C2c2ccc(F)cc2)cc1 (stereo unspecified)	105	113
CC(=O)N1CCCc2cc(S(=O)(=O)NCc3cccc(C)c3)ccc21	109	108
CN1C(=O)c2cccc3c(S(=O)(=O)Nc4cccc(C(=O)O)c4)ccc1c23	102	106
O=C(NCCCN1CCN(c2cccc(Cl)c2)CC1)c1cnn(-c2ccc(F)cc2)c1-n1cccc1	109	108
COc1ccc(C2CC(=O)N(CC(=O)Nc3ccc(C(C)=O)cc3)c3ccccc3S2)cc1OC (stereo unspecified)	109	111
CCC(Sc1ncnc2sc3c(c12)CCCC3)C(=O)OC(C)C (stereo unspecified)	106	110
COc1cccc(C(=O)Nc2nnc(S(=O)(=O)N3CCCc4ccccc43)s2)c1	112	116
COc1cc(C2c3c(-c4ccccc4O)n[nH]c3C(=O)N2CCO)ccc1OCC(C)C (stereo unspecified)	107	98
Remaining list, next part
SMILES	PV pol inh	PV pol inh intensity
O=C1c2[nH]nc(-c3ccccc3O)c2C(c2ccc(F)cc2)N1CCO (stereo unspecified)	108	112
O=C(O)c1ccc(NCc2nc3ccccc3n2CCOc2ccccc2Cl)cc1	100	101
CCC(Sc1nc2cc3c(cc2c(=O)n1CCCC(=O)NCc1ccc2c(c1)OCO2)OCO3)C(=O)NCCCOC (stereo unspecified)	110	113
COc1cc(C(CC(=O)Nc2ccc(Br)cn2)N2Cc3ccccc3C2=O)cc(OC)c1OC (stereo unspecified)	106	102
Cc1cccc(-c2nc3scc(CCNC(=O)c4ccc(Br)o4)n3n2)c1	112	109
CCCN1C(=O)CN(C2CCCCC2)C(=O)C1c1ccc(OC)c(OC)c1 (stereo unspecified)	108	105
COc1ccc(CCNC(=O)c2cc(C)nc3c2c(C)nn3-c2ccccc2)cc1OC	106	112
COc1ccc(C)cc1NC(=O)CN1CCN(CC(=O)Nc2ccccc2F)CC1	109	107
CC(=O)Nc1ccc(S(=O)(=O)NCC2CCC(C(=O)NCc3ccccc3Cl)CC2)cc1 (stereo unspecified)	117	135
O=C(C1CCCN(S(=O)(=O)c2cccc3nonc23)C1)N1CCN(c2ccccc2Cl)CC1 (stereo unspecified)	101	104
CC(=O)c1cccc(NS(=O)(=O)c2cc(-c3onc(C)c3C)ccc2C)c1	111	109
Cc1ccc(-n2c3c(cc(-c4nc(-c5ccc(Cl)cc5)cs4)c2=O)C(=O)CC(C)(C)C3)cc1	107	112
CCC(Oc1ccccc1)C(=O)Nc1cccc(OCc2cc(=O)n3cccc(C)c3n2)c1 (stereo unspecified)	103	100
CCc1ccccc1NS(=O)(=O)c1ccc(OC)c2ncccc12	103	103
Cc1ccsc1CN1CCc2nc(N3CCN(c4ccccc4F)CC3)ncc2C1	104	104
COc1ccc(S(=O)(=O)c2nnn(-c3cc(Cl)c(OC)cc3OC)c2C)cc1	105	110
Cc1ccc(CN(Cc2ccco2)C(=O)c2ccc(OCC(C)C)cc2)cc1	107	112
O=C(CC(c1cccs1)N1Cc2ccccc2C1=O)Nc1ccc(F)cc1 (stereo unspecified)	108	113
COc1ccc(C)cc1NC(=O)c1cn(C)c(=O)c2cc(OC)c(OC)cc12	106	106
Cc1oc(-c2cccc(Cl)c2)nc1Cn1c(SCc2ccc(F)cc2)nc2cccnc21	113	119
Cc1ccccc1NC(=O)C(=O)NCC(c1ccc2c(c1)OCO2)N1CCN(c2ccccc2)CC1 (stereo unspecified)	102	111
COc1cccc(NC(=O)C2CCN(S(=O)(=O)c3cc(-c4noc(C)n4)ccc3C)CC2)c1	102	99
Cc1ccc(NC(=O)CSc2nccn2Cc2ccco2)cc1Cl	105	107
Cc1ccc(CNCc2ccc3c(c2)n(C)c(=O)n3C)cc1	108	109

Sorted by molecular weight (ascending): some entries from above.
SMILES	PV pol inh	PV pol inh intensity
Cc1ccc(CNCc2ccc3c(c2)n(C)c(=O)n3C)cc1	108	109
CCc1ccccc1NS(=O)(=O)c1ccc(OC)c2ncccc12	103	103
Cc1ccc(NC(=O)CSc2nccn2Cc2ccco2)cc1Cl	105	107
Cc1ccc(CN(Cc2ccco2)C(=O)c2ccc(OCC(C)C)cc2)cc1	107	112
O=C(CC(c1cccs1)N1Cc2ccccc2C1=O)Nc1ccc(F)cc1 (stereo unspecified)	108	113
COc1ccc(C)cc1NC(=O)c1cn(C)c(=O)c2cc(OC)c(OC)cc12	106	106
COc1ccc(C)cc1NC(=O)CN1CCN(CC(=O)Nc2ccccc2F)CC1	109	107
COc1ccc(S(=O)(=O)c2nnn(-c3cc(Cl)c(OC)cc3OC)c2C)cc1	105	110
CCC(Oc1ccccc1)C(=O)Nc1cccc(OCc2cc(=O)n3cccc(C)c3n2)c1 (stereo unspecified)	103	100
Cc1oc(-c2cccc(Cl)c2)nc1Cn1c(SCc2ccc(F)cc2)nc2cccnc21	113	119
COc1cccc(NC(=O)C2CCN(S(=O)(=O)c3cc(-c4noc(C)n4)ccc3C)CC2)c1	102	99
Cc1ccc(-n2c3c(cc(-c4nc(-c5ccc(Cl)cc5)cs4)c2=O)C(=O)CC(C)(C)C3)cc1	107	112
CC(=O)Nc1ccc(S(=O)(=O)NCC2CCC(C(=O)NCc3ccccc3Cl)CC2)cc1 (stereo unspecified)	117	135
Cc1ccccc1NC(=O)C(=O)NCC(c1ccc2c(c1)OCO2)N1CCN(c2ccccc2)CC1 (stereo unspecified)	102	111
O=C(C1CCCN(S(=O)(=O)c2cccc3nonc23)C1)N1CCN(c2ccccc2Cl)CC1 (stereo unspecified)	101	104

(list continues)
SMILES	PV pol inh	PV pol inh intensity
CC(C)NC(=O)N1CCN(S(=O)(=O)c2ccc3c(ccn3C)c2)CC1	105	112
CCS(=O)(=O)N1CCCC(C(=O)NCCOC)C1 (stereo unspecified)	113	116
CCOc1ccc(-c2nnc(SCC(=O)NCCc3ccc(OC)c(OC)c3)nc2-c2ccc(OCC)cc2)cc1	110	114
CCOc1ccc(CNC(=O)CCn2c(=O)c3cccn3c3ccc(F)cc32)cc1	104	108
CCOC(=O)c1c(C)[nH]c(C)c1S(=O)(=O)N(C)CC(=O)N1CCN(c2ccccc2OC)CC1	104	101
CCOc1ccccc1Nc1nc2c(S(=O)(=O)c3ccc(C)cc3)nnn2c2ccsc12	107	103
Cc1ccc(CCNC(=O)c2ccc(Cn3c(=O)c4cccn4c4cccnc43)cc2)cc1	110	104
COc1cccc2sc(NC(=O)c3ccc4c(c3)OCCO4)nc12	103	109
Cc1ccn2c(=O)cc(CSc3nnc(NC(=O)c4ccccc4Cl)s3)nc2c1	100	104
CC(C)OCCCN(C)C1CCN(S(=O)(=O)c2csc(C(N)=O)c2)CC1	112	104
CCOc1ccc(Br)cc1C1NC(=O)c2c(sc3c2CCN(C)C3)N1 (stereo unspecified)	114	139
Cc1ccccc1Cn1c(=O)n(CC2CCC(C(=O)N3CCOCC3)CC2)c(=O)c2sccc21 (stereo unspecified)	99	105
COC(=O)c1cccc(Nc2nn3c(=O)c4cc5c(cc4nc3s2)OCO5)c1	108	110
CCC(=O)N1c2ccccc2CC1C(=O)NCCCN1CCN(c2ccc(F)cc2)CC1 (stereo unspecified)	112	106
CC(=O)c1ccc(NC(=O)Cn2ncc3c4ccccc4n(Cc4ccccc4)c3c2=O)cc1	106	109
CCC1=C(c2ccc(C)cc2)S(=O)(=O)N=C1N1CCC(C(=O)NCc2ccccc2Cl)CC1	112	113
CCc1cccc(NC(=O)Cn2cc(C(=O)c3ccncc3)c(=O)c3cc(C)c(C)cc32)c1	102	101
COc1cc(NC(=O)Cn2ccn(-c3cc(C)cc(C)c3)c(=O)c2=O)cc(OC)c1	112	111
CCN(Cc1ccccc1)C(=O)Cn1c(=O)n(-c2ccccc2)c(=O)c2c1c1cc(C)ccc1n2C	113	113
Cc1c(C)n(Cc2ccc(Cl)cc2)c2ccc(C(=O)NCCc3ccc(S(N)(=O)=O)cc3)cc12	98	95
COc1ccccc1N1CCN(C(=O)c2cc(-c3ccc(F)cc3)on2)CC1	107	106
